Screening data as filed in PubChem.
ugtP null kill: growth inhibition of S. aureus ugtP deletion strain; S. aureus RN4220 ugtP deletion, OD600 growth, 16 h; some inactives read as strong as hits; actives 0.54% (n = 330,000); growth inhibition, % (no concentration beside the values);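 active means z-score under -3 and OD600 up to 0.15 on both plates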;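 further: plate controls were untreated wells for no effect and antibiotic for full effect; wells of about 80 µL received 100 nL stock; the first replicate is given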
BJeLR viability: BJeLR cell viability loss; BJeLR (HRASV12) viability, CellTiter-Glo ATP luminescence, 48 h; reference of the scale not given here; actives 0.17% (n = 300,000); AID 1554; inhibition, % (no concentration beside the values);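 active means replicate mean above 50%; inconclusive means above 50% but judged a plate artefact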;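 further: 50 nL library stock added to about 25 µL; numbers are from one replicate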
Bead autofluor: compound fluorescence in toxin protease inhibitor counterscreen. compound autofluorescence counterscreen, microsphere flow cytometry; hits give high values. fluorescence intensity (no concentration beside the values). actives 3.1% (n = 360,000). AID 624483;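 active means at least 3 SD above the mean of all compounds, about 16000 in these data; inconclusive means too few beads counted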;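 further: 100 nL of 1 mM stock went into each well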
Mtb hypoxia inh: reduces hypoxia-regulated biosensor signal in M. tuberculosis; M. tuberculosis hypoxia-regulated fluorescent reporter, fluorescence; fluorescence inhibition, % (no concentration beside the values); actives 0.1% (n = 300,000); AID 1159583;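 active means 35 to 45% if threefold the growth effect, above 45% if 1.5-fold the growth effect; inactive means the rest, general growth blockers included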;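 further: wells of about 50 µL received 100 nL stock; 0% = vehicle wells and 100% = reference inhibitor wells; whole bacteria with a GFP reporter of the hypoxia response; strong numbers were not always called active; many hits fall short of the cut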
RN4220 kill: S. aureus RN4220 growth inhibition; actives 0.33% (n = 330,000); OD600, 16 h; inhibition, % (concentration not given with the values);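 active means z-score of -3 or lower and OD600 up to 0.18 on both plates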;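 further: plate controls were untreated cells for no effect and reference antibiotic for full effect; stock transfer was 100 nL into about 80 µL; one replicate is shown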
PrP 5UTR inh: inhibition of PrP 5' UTR reporter expression; actives 0.35% (n = 340,000); inhibition, % (no concentration beside the values); cell-based PrP 5' UTR mRNA reporter, plate reader;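 active means every replicate at 50% or more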;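 further: 0 = median of the neutral control wells; tested in H4 reporter cells; numbers are from one replicate; inactives centre near -14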
Mtb hypoxia inh growth: second read-out of Mtb hypoxia inh, no call of its own (marks repeat the call); growth inhibition, %; measured here: M. tuberculosis growth (absorbance);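 0% = vehicle and 100% = reference antibiotic; read after six days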
* marks the source's active call; other numbers are inactive results.

For Cc1ccc(C)c(NC(=O)CCC(=O)NNC(=O)c2cccc([N+](=O)[O-])c2)c1 the results were ugtP null kill 10, BJeLR viability -19, Bead autofluor 24147*, Mtb hypoxia inh 3, RN4220 kill -3.5, PrP 5UTR inh -19 and Mtb hypoxia inh growth 6.
For CC(C)CN(C(=O)COc1ccc2ccc(=O)oc2c1)C1CCS(=O)(=O)C1 (stereo not given) the results were ugtP null kill -2, BJeLR viability 3, Bead autofluor 5957, Mtb hypoxia inh -5, RN4220 kill -2.4, PrP 5UTR inh 7 and Mtb hypoxia inh growth 3.
For COc1ccccc1S(=O)Cc1ccc(C(=O)NC2CCCC2)o1 (stereo not given) the results were ugtP null kill 5, BJeLR viability 1, Bead autofluor 4372, RN4220 kill -0.1 and PrP 5UTR inh -2.
Screening Cc1cc2[nH]c3ccccc3c2c(C)n1 returned ugtP null kill 0, BJeLR viability -18, Bead autofluor 1994, Mtb hypoxia inh 2, RN4220 kill 2.3, PrP 5UTR inh 34 and Mtb hypoxia inh growth 3.
O=C(c1cccnc1Cl)N(Cc1ccccc1)Cc1ccccc1 was read as ugtP null kill 6, BJeLR viability 1, Bead autofluor 4254, Mtb hypoxia inh 2, RN4220 kill 3.5, PrP 5UTR inh -73 and Mtb hypoxia inh growth 0.
`CCC(C)C(=O)Nn1c(C2CC2)nc2cc(OC)c(OC)cc2c1=O` (stereo not given) gave ugtP null kill 2, BJeLR viability 3, Bead autofluor 4514, Mtb hypoxia inh 2, RN4220 kill 8.4, PrP 5UTR inh -20 and Mtb hypoxia inh growth 0.
For CCC(=O)Nc1ccc(C(=O)Nc2ccc3c(c2)C(=O)N(CC2CCCO2)C3=O)cc1 (stereo not given) the results were ugtP null kill -4, BJeLR viability -2, Bead autofluor 2529, RN4220 kill -2.2 and PrP 5UTR inh -11.
Screening CC/C(=N\Nc1ccccc1[N+](=O)[O-])c1ccc(O)cc1 returned BJeLR viability 7, Bead autofluor 4274 and PrP 5UTR inh -16.
CC1CCCN(C(=O)N2c3ccccc3Sc3ccccc32)C1 (stereo not given) was read as ugtP null kill 7, BJeLR viability -12, Bead autofluor 11113, Mtb hypoxia inh 7, RN4220 kill 1.1, PrP 5UTR inh 5 and Mtb hypoxia inh growth 3.
For Cc1ccccc1-c1nnn(CC(=O)c2ccc(S(=O)(=O)N3CCCC3)cc2)n1 the results were ugtP null kill 1, BJeLR viability -8, Bead autofluor 4526, Mtb hypoxia inh 3, RN4220 kill -0.7, PrP 5UTR inh -8 and Mtb hypoxia inh growth 5.
`COc1cc(OC)cc(OC(=O)C2CCN(C(=O)c3ccc(F)cc3)CC2)c1` gave ugtP null kill 3, BJeLR viability 5, Bead autofluor 6697, Mtb hypoxia inh -6, RN4220 kill 3.0, PrP 5UTR inh -21 and Mtb hypoxia inh growth 4.
For Cc1ccccc1CN1CCN(c2nc3ccccc3s2)CC1 the results were ugtP null kill 32, BJeLR viability 3, Bead autofluor 3480, Mtb hypoxia inh 5, RN4220 kill 0.4, PrP 5UTR inh -67 and Mtb hypoxia inh growth -2.
COc1ccc(NC(=O)Cn2nnc3sc4c(c3c2=O)CC(C)(C)OC4)cc1 was read as ugtP null kill 3, BJeLR viability -7, Bead autofluor inconclusive, Mtb hypoxia inh 10, RN4220 kill 3.2, PrP 5UTR inh -2 and Mtb hypoxia inh growth 7.
Cn1ncc([N+](=O)[O-])c1C(=O)N/N=C/c1ccc(F)cc1 was read as BJeLR viability 6, Bead autofluor 10024 and PrP 5UTR inh -4.
Screening CCOC(=O)c1sc(NC(=O)/C=C/c2ccccc2)nc1C returned ugtP null kill 8, BJeLR viability 17, Bead autofluor 2667, Mtb hypoxia inh 11, RN4220 kill -1.8, PrP 5UTR inh -31 and Mtb hypoxia inh growth 16.
`O=C(CSc1ncccn1)N1CCc2ccccc2C1` gave ugtP null kill 11, BJeLR viability 2, Bead autofluor 2161, Mtb hypoxia inh -1, RN4220 kill 0.2, PrP 5UTR inh -20 and Mtb hypoxia inh growth 4.
COc1cc(NC(=O)Nc2cccc([N+](=O)[O-])c2)cc(OC)c1 was read as ugtP null kill -10, BJeLR viability -1, Bead autofluor 4272, Mtb hypoxia inh 16, RN4220 kill -6.0, PrP 5UTR inh -2 and Mtb hypoxia inh growth 12.
`COc1ccc(N=C2CC(C)(C)CC(=O)/C2=C(/O)c2ccccc2)cc1` gave ugtP null kill 8, BJeLR viability -8, Bead autofluor 2461, Mtb hypoxia inh 8, RN4220 kill 1.2, PrP 5UTR inh -3 and Mtb hypoxia inh growth 0.
COc1cccc(-c2cc(C(F)(F)F)n3nc(N)nc3n2)c1 was read as ugtP null kill 5, BJeLR viability 1, Bead autofluor 5309, RN4220 kill 0.3 and PrP 5UTR inh -8.
O=C(c1ccco1)N1CCN(C(=O)C(c2ccccc2)c2ccccc2)CC1 was read as ugtP null kill -10, BJeLR viability -2, Bead autofluor 7965, Mtb hypoxia inh -82, RN4220 kill 3.7, PrP 5UTR inh -9 and Mtb hypoxia inh growth -11.
`COc1cc(OC)cc(C(=O)Nc2nc(CC(=O)NCc3ccc(F)cc3)cs2)c1` gave ugtP null kill 19, BJeLR viability 2, Mtb hypoxia inh -8, RN4220 kill -2.1, PrP 5UTR inh -4 and Mtb hypoxia inh growth 4.
For O=C(O)C(Cc1ccccc1)N1C(=O)C2CCCCC2C1=O (stereo not given) the results were ugtP null kill 3, BJeLR viability 5, Bead autofluor 3472, Mtb hypoxia inh 7, RN4220 kill 1.7, PrP 5UTR inh -15 and Mtb hypoxia inh growth 4.
N#C/C(=C\c1ccc(Cl)cc1)c1nc(-c2ccco2)cs1 was read as ugtP null kill -1, BJeLR viability 3, Bead autofluor 2099, Mtb hypoxia inh 11, RN4220 kill 3.7, PrP 5UTR inh -41 and Mtb hypoxia inh growth -1.
For CCN(CC)S(=O)(=O)c1ccc(NC(=O)C2COc3ccccc3O2)cc1 (stereo not given) the results were ugtP null kill -4, BJeLR viability 1, Bead autofluor 2529, Mtb hypoxia inh 12, RN4220 kill -8.7, PrP 5UTR inh -6 and Mtb hypoxia inh growth 5.
`CC(C)(C)OC(=O)NN=Cc1ccc(N2CCOCC2)s1` gave ugtP null kill 0, Mtb hypoxia inh 6, RN4220 kill 4.3 and Mtb hypoxia inh growth 2.
CCN(C[C@H]1N[C@@](Cc2ccccc2)(C(=O)OC)[C@H]2C(=O)N(C)C(=O)[C@@H]12)S(=O)(=O)c1ccccc1 was read as ugtP null kill 1, Bead autofluor 3072, Mtb hypoxia inh -3, RN4220 kill 1.6, PrP 5UTR inh 45 and Mtb hypoxia inh growth 1.
Screening COc1cc(C)c(Cl)cc1S(=O)(=O)NC1CC(C)(C)NC(C)(C)C1 returned ugtP null kill 8, BJeLR viability 7, Mtb hypoxia inh 6, RN4220 kill 0.1 and Mtb hypoxia inh growth 7.
Screening CCOC(=O)NN=Cc1ccc(-c2cccc(C(F)(F)F)c2)o1 returned ugtP null kill -1, Mtb hypoxia inh 10, RN4220 kill 4.0 and Mtb hypoxia inh growth 1.
`Cc1cccc(C)c1N(CC(=O)NCc1ccccc1)C(=O)c1csnn1` gave ugtP null kill 5, BJeLR viability -12, Bead autofluor 4561, Mtb hypoxia inh -2, RN4220 kill 3.4, PrP 5UTR inh -15 and Mtb hypoxia inh growth -2.
`O=C(NCc1ccc(Cl)cc1)c1ccc(N2CCCC2=O)cc1` gave ugtP null kill 1, BJeLR viability -9, Bead autofluor 3896, Mtb hypoxia inh 7, RN4220 kill 5.5, PrP 5UTR inh -10 and Mtb hypoxia inh growth 1.

6 successive records already listed, for reference:
`CC(C)(C)OC(=O)NN=Cc1ccc(N2CCOCC2)s1` gave ugtP null kill 0, Mtb hypoxia inh 6, RN4220 kill 4.3 and Mtb hypoxia inh growth 2.
CCN(C[C@H]1N[C@@](Cc2ccccc2)(C(=O)OC)[C@H]2C(=O)N(C)C(=O)[C@@H]12)S(=O)(=O)c1ccccc1 was read as ugtP null kill 1, Bead autofluor 3072, Mtb hypoxia inh -3, RN4220 kill 1.6, PrP 5UTR inh 45 and Mtb hypoxia inh growth 1.
Screening COc1cc(C)c(Cl)cc1S(=O)(=O)NC1CC(C)(C)NC(C)(C)C1 returned ugtP null kill 8, BJeLR viability 7, Mtb hypoxia inh 6, RN4220 kill 0.1 and Mtb hypoxia inh growth 7.
Screening CCOC(=O)NN=Cc1ccc(-c2cccc(C(F)(F)F)c2)o1 returned ugtP null kill -1, Mtb hypoxia inh 10, RN4220 kill 4.0 and Mtb hypoxia inh growth 1.
`Cc1cccc(C)c1N(CC(=O)NCc1ccccc1)C(=O)c1csnn1` gave ugtP null kill 5, BJeLR viability -12, Bead autofluor 4561, Mtb hypoxia inh -2, RN4220 kill 3.4, PrP 5UTR inh -15 and Mtb hypoxia inh growth -2.
`O=C(NCc1ccc(Cl)cc1)c1ccc(N2CCCC2=O)cc1` gave ugtP null kill 1, BJeLR viability -9, Bead autofluor 3896, Mtb hypoxia inh 7, RN4220 kill 5.5, PrP 5UTR inh -10 and Mtb hypoxia inh growth 1.

Going on with the list.
For Cc1ccc(C2C=C(c3ccccc3)Nc3ncnn32)cc1 (stereo not given) the results were BJeLR viability -3, Bead autofluor 3193 and PrP 5UTR inh -6.
`Cc1nnc(N(C)C(=O)Cc2ccc3c(c2)OCO3)s1` gave ugtP null kill 1, BJeLR viability -3, Bead autofluor 2507, RN4220 kill 0.3 and PrP 5UTR inh -28.
`CC(=NNc1nc(-c2cc(C)ccc2C)cs1)c1cc2ccccc2oc1=O` gave ugtP null kill -16, Mtb hypoxia inh 0, RN4220 kill 5.2 and Mtb hypoxia inh growth 0.
Cc1ccc(S(=O)(=O)Nc2ccc(NC(=O)/C=C/C(=O)O)cc2)cc1 was read as ugtP null kill 1, BJeLR viability 7, Bead autofluor 4139, Mtb hypoxia inh 9, RN4220 kill 5.4, PrP 5UTR inh -10 and Mtb hypoxia inh growth -7.
`Cn1c(=O)c2c(nc(CN3CCN(C(=O)c4ccco4)CC3)n2Cc2ccc(Cl)cc2)n(C)c1=O` gave ugtP null kill 10, BJeLR viability 8, Bead autofluor 18363*, Mtb hypoxia inh 6, RN4220 kill 4.0, PrP 5UTR inh -20 and Mtb hypoxia inh growth -2.
For O=S(=O)(O)c1cc(O)c2ccc(Nc3ccccc3)cc2c1 the results were ugtP null kill -4, Bead autofluor 3685, Mtb hypoxia inh -8, RN4220 kill 2.0, PrP 5UTR inh -10 and Mtb hypoxia inh growth 15.
Screening COc1cc(CNCc2ccccc2)ccc1OCC(O)c1ccccc1 (stereo not given) returned ugtP null kill 4, BJeLR viability 9, Bead autofluor 3739, Mtb hypoxia inh 6, RN4220 kill 2.8, PrP 5UTR inh -51 and Mtb hypoxia inh growth 2.
`O=C(Nc1ccc(C(F)(F)F)cc1)C1CCN(S(=O)(=O)c2ccc(N3CCCC3=O)cc2)CC1` gave ugtP null kill 7, BJeLR viability 5, Bead autofluor 5659, Mtb hypoxia inh 0, RN4220 kill 1.2, PrP 5UTR inh -14 and Mtb hypoxia inh growth -2.
COCCNC(=O)C(c1cccs1)N(C(=O)Cn1nnc2ccccc21)c1ccccc1 (stereo not given) was read as ugtP null kill 10, BJeLR viability -7, Bead autofluor 4404, Mtb hypoxia inh 5, RN4220 kill 4.6, PrP 5UTR inh -17 and Mtb hypoxia inh growth 12.
`NC(=O)C1CCN(c2ncccc2[N+](=O)[O-])CC1` gave ugtP null kill 3, BJeLR viability -5, Bead autofluor inconclusive, Mtb hypoxia inh 17, RN4220 kill 5.9, PrP 5UTR inh -11 and Mtb hypoxia inh growth 4.
For O=C(Cn1c(=S)[nH]c2ccccc2c1=O)N1CCc2ccccc2C1 the results were ugtP null kill -65, BJeLR viability 0, Bead autofluor 3423, Mtb hypoxia inh 16, RN4220 kill 11, PrP 5UTR inh 6 and Mtb hypoxia inh growth -2.
`CN(C)c1nc(N)nc(CSc2ncc(Cl)cc2Cl)n1` gave ugtP null kill 19, BJeLR viability -9, Bead autofluor 11038, Mtb hypoxia inh 5, RN4220 kill 3.6, PrP 5UTR inh -7 and Mtb hypoxia inh growth 2.
Screening O=C(CN1C(=O)NC2(CCCc3ccccc32)C1=O)c1ccc(F)c(F)c1 (stereo not given) returned ugtP null kill -6, Bead autofluor 3958, Mtb hypoxia inh 15, RN4220 kill 5.4, PrP 5UTR inh -25 and Mtb hypoxia inh growth 9.
